UCH37 DUB inh – human UCH37 deubiquitinating enzyme inhibition; purified proteasome/UCH37, Ub-AMC cleavage fluorescence; Q9Y5K5; 0.33% of 330,000 active; inhibition, % (no concentration beside the values); AID 588478;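 active = mean of two replicates above 20%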;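 also: 0% = compound-free wells with enzyme and 100% = wells lacking proteasome; stock transfer was 100 nL into about 20 µL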
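system = Proteasome-associated human UCH37 deubiquitinase | amount = 0.15 nM proteasome as dispensed | medium = pH 7.4 Tris-HCl (50 mM) with ovalbumin, ATP-MgCl2, DTT | incubation = 30 min preincubation with enzyme, 25 min cleavage at room temperature | detection = AMC fluorescence 355/460 nm | read-out basis = percent inhibition | controls = no-proteasome and no-compound wells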
Vif A3G – inhibitors of Vif binding to APOBEC3G peptide, primary screen, biochemical, TR-FRET, GST-Vif 1-94, biotin-A3G peptide, dose response retest (AID 1117319). TR-FRET GST-Vif / biotin-A3G peptide binding; higher % means a stronger effect; test concentration not given here; strong numbers were not always called active. inhibition, %; hits with a dose series show IC50 in µM. 0.57% of 260,000 active;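 active = above the screen mean plus three standard deviations and confirmed in dose response; inconclusive = results disagree or hit not tested in dose response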;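 also: Vif residues 1-94 fused to GST binding biotinylated APOBEC3G peptide 110-148; 0% = full assay without inhibitor and 100% = GST in place of GST-Vif; retest series ran down from 100 µM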
Ecoli growth – inhibitors of Escherichia coli growth; OD600, 23 h; stronger effect = lower value; OD600 absorbance (test concentration not listed); 0.21% of 330,000 active; AID 1053175;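 active = OD600 absorbance below the run mean of sample wells minus 3.6 SD, in any replicate, cut at about 0.56 in these data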;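 also: stock transfer was 300 nL into about 60 µL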
HNF4A DNA FP – change in binding of human HNF4 alpha to DNA; P41235; 0.3% of 360,000 active; HNF4a-FITC DNA binding, fluorescence polarization, 1 h; AID 1224865; activity change, % at 10 µM; in the data active = activity change above about 30%, passing the limit was not always enough;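 also: controls were the assay level and a saturating level of protein; the project sought stronger binding though the title names inhibitors; some compounds called inactive have numbers as strong as hits; positive values seem to mean higher polarization but the record does not say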
Target sequence (P41235 whole entry, looked up): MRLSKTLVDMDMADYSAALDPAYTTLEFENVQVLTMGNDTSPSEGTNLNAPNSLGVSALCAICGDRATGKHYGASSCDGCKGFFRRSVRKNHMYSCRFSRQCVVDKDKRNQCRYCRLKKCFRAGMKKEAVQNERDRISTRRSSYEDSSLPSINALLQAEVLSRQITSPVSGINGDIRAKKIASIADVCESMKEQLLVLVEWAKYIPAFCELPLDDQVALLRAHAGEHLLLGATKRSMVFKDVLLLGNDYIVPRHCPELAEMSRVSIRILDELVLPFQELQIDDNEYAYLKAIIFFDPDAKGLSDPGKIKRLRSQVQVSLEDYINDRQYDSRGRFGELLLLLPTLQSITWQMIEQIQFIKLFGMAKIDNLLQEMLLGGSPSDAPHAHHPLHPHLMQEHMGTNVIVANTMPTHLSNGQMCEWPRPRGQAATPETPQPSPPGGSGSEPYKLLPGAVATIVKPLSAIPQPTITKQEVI
AF4-AF9 inh – blocks AF4 peptide binding to human AF9. P42568. AlphaScreen, biotin-AF4 peptide binding to FLAG-AF9. inhibition, % at 10 µM. 0.47% of 350,000 active. AID 651704;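 active = every replicate reaching a set inhibition limit, whatever the replicate mean, cut at about 25% in these data; inconclusive = mean inhibition reaches that limit but some replicates miss it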;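 also: 0% = plate neutral control median and 100% = total signal loss; the record names both 10 and 1 µM as test concentration; the first replicate is given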
Target sequence (P42568 whole entry, looked up): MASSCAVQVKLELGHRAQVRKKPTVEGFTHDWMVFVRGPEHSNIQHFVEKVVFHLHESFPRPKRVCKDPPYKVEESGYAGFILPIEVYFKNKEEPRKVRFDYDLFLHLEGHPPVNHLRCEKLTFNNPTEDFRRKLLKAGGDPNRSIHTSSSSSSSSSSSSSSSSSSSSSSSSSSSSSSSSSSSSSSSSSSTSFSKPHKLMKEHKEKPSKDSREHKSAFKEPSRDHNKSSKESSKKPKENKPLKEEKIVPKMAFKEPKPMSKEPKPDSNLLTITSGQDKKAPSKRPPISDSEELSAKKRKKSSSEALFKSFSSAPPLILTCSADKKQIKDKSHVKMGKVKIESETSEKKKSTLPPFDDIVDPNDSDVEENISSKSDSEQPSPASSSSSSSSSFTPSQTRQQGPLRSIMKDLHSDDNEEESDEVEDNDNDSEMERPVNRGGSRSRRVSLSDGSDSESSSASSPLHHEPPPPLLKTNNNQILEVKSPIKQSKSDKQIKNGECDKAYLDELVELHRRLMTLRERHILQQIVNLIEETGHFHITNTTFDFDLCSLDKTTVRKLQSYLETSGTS
FGF22 binding – shifts melting point of recombinant human FGF22. Q9HCT0. recombinant FGF22 thermal shift, SYPRO orange fluorescence; percent of sucrose octasulfate shift, DMSO zero. calls only at 9.99 µM. 1.5% of 340,000 active;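 active = melting point raised past a set limit in the mean and every replicate; inconclusive = no clear call; three in four hits are not shown here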
RanGTP-Impb inh – inhibitors of RanGTP-importin-beta interaction, primary screen, biochemical, FRET, CFP-Ran, YFP-importin-beta, homogeneous | cell-free CFP-Ran/YFP-importin-beta FRET ratio | inhibition, % (no concentration beside the values) | 1.1% of 300,000 active | AID 2216;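 active = most replicates above 15%; inconclusive = exactly half above 15%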;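 also: 0% = DMSO wells and 100% = Ran loaded with GDP instead of GTP; wells of about 40 µL received 100 nL stock; the first replicate is given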
Numbers without * were called inactive; i = inactive; ? = inconclusive; . = no result given; + = active, no number.

SMILES	UCH37 DUB inh	Vif A3G	Ecoli growth	HNF4A DNA FP	AF4-AF9 inh	FGF22 binding	RanGTP-Impb inh
CCOC(=O)C(=O)NNc1ccc(C)cc1	-0.4	.	0.71	-0.4	.	.	0.3
O=Cc1sc(N2CCOCC2)nc1-c1ccccc1	-2.3	-5%	0.71	.	.	.	0.0
Cc1ccc(C)c(-n2c3nc(=O)n(C)c(=O)c-3cc3ccccc32)c1	i	33%	0.7	2.9	-2.5	i	133*
O=C(CSc1nccn1-c1ccc(F)cc1)NCc1ccc2c(c1)OCO2	0.3	2%	0.67	2.8	.	.	0.4
O=C(CCn1cnc(-c2ccccc2)c1-c1ccccc1)N/N=C/c1ccccc1O	.	.	.	-1.0	3.6	i	0.2
COc1ccc(CC(=O)Nc2ccccc2N2CCCCC2)cc1OC	2.3	.	0.73	4.2	0.5	i	-2.8
Oc1ccc(N=Nc2ccc3ccccc3c2)cc1	11	.	0.59	-0.4	26*	i	-0.1
Nc1c(-c2cccs2)cnc2c(-c3ccc(F)cc3)cnn12	-58	-56%	0.69	8.3	-2.1	i	-4.5
Cc1c(OCC(=O)NC(Cc2ccc(Cl)cc2)C(=O)O)ccc2c(-c3ccccc3)cc(=O)oc12 (stereo unspecified)	3.4	.	0.77	-9.0	-14	i	?
Cc1nn(CC(=O)NCCc2cccs2)c(=O)c2nn(-c3ccccc3)c(C)c12	2.9	-1%	0.68	-3.0	-3.3	i	1.1
COC(=O)c1ccc(NC(=S)NC(=O)c2cccnc2)cc1	0.0	-3%	0.69	1.4	-1.0	i	-0.4
C=CCOc1c(OC)cc(Cl)cc1C1NC(=O)NC(C)=C1C(C)=O (stereo unspecified)	0.1	-3%	0.71	-0.9	.	.	1.7
CCN(c1ccccc1)S(=O)(=O)c1ccc(OC)c(NC(=O)CNCC(C)O)c1 (stereo unspecified)	1.9	-1%	0.68	1.3	.	.	-4.0
CCC(=O)Nc1cccc2c1C(=O)N(C)C2=O	-133	6%	0.69	-2.6	.	.	-0.8
COc1ccc(-c2nnn(Cc3ccccc3F)n2)cc1	-1.1	-7%	0.62	-0.2	.	.	8.6
CCOC(=O)c1ccccc1NS(=O)(=O)c1ccc(OC)cc1	2.1	-6%	0.73	1.2	.	.	1.5
CN1CC[n+]2c(CN3C(=O)c4ccccc4C3=O)csc21	.	-2%	0.68	-1.2	.	.	-0.5
COc1cc2cc3c(N)c(C(=O)NCc4ccco4)sc3nc2cc1OC	6.8	9%	0.74	1.9	.	.	-14
Cc1ccc2c(c1)[nH]c1c(N3CCN(Cc4ccccc4)CC3)ncnc12	-23	0%	0.62	-4.2	.	.	3.3
Cc1cc(C)c(NC(=O)CS(=O)CC(=O)NCCN2CCCCCC2)c(C)c1 (stereo unspecified)	1.7	.	0.63	-0.5	5.0	i	1.0

5 records picked at random from the list so far:
SMILES	UCH37 DUB inh	Vif A3G	Ecoli growth	HNF4A DNA FP	AF4-AF9 inh	FGF22 binding	RanGTP-Impb inh
O=C(CSc1nccn1-c1ccc(F)cc1)NCc1ccc2c(c1)OCO2	0.3	2%	0.67	2.8	.	.	0.4
C=CCOc1c(OC)cc(Cl)cc1C1NC(=O)NC(C)=C1C(C)=O (stereo unspecified)	0.1	-3%	0.71	-0.9	.	.	1.7
COC(=O)c1ccc(NC(=S)NC(=O)c2cccnc2)cc1	0.0	-3%	0.69	1.4	-1.0	i	-0.4
COc1ccc(CC(=O)Nc2ccccc2N2CCCCC2)cc1OC	2.3	.	0.73	4.2	0.5	i	-2.8
O=Cc1sc(N2CCOCC2)nc1-c1ccccc1	-2.3	-5%	0.71	.	.	.	0.0

More compounds:
SMILES	UCH37 DUB inh	Vif A3G	Ecoli growth	HNF4A DNA FP	AF4-AF9 inh	FGF22 binding	RanGTP-Impb inh
CC(=O)Nc1nnc(SCc2cc(=O)c(OC(=O)c3ccccc3)co2)s1	1.1	-2%	0.7	2.5	1.2	i	4.5
Cn1c[n+](C)cc1-c1ccc(/C(N)=N/O)cc1	-2.0	-2%	.	-2.2	.	.	-1.8
c1ccc(-c2ncnc3cc4n(c23)CCC4)cc1	-29	-1%	0.7	0.2	.	.	0.4
CSc1nc(-c2ccccc2)[nH]c(=S)c1C(C)=O	0.9	6%	0.76	1.0	.	.	2.0
CC(C)CC(=O)N1CCN(Cc2cccc([N+](=O)[O-])c2)CC1	4.6	?	0.66	4.0	-0.7	.	-2.2
O=C(c1cc2ccccc2o1)N1CCN(c2ccccc2Cl)CC1	0.5	4%	0.68	3.0	.	.	-3.7
CC(=O)N(c1cccc(Cl)c1)c1nc(C)cc(C)c1C#N	4.1	-7%	0.63	3.7	5.2	i	1.1
Cc1ccc2c(CN3CCC(C)CC3)cc(=O)oc2c1	3.6	22%	0.63	0.0	.	.	?
Cc1ccc(S(=O)(=O)NCCC(=O)Nc2cccc(S(N)(=O)=O)c2)cc1C	0.8	-1%	0.65	-3.5	-1.1	i	0.7
Brc1cccc(-c2nnc3n2CCCCC3)c1	2.8	1%	0.68	6.5	.	.	1.3
COc1ccc(S(N)(=O)=O)cc1C(=O)NCCCN1CCN(c2ccc(C)cc2)CC1	1.1	16%	0.67	-1.3	.	.	-2.6
CCc1ccc(NC(=O)c2ccc(-n3cncn3)c([N+](=O)[O-])c2)cc1	5.6	7%	0.68	-5.5	7.8	+	0.9
COCC1CCN(C(=O)c2cc(COc3ccc(C)c(C)c3)on2)C1 (stereo unspecified)	1.9	-2%	0.71	-0.7	-1.2	i	-3.9
COc1ccc(CN2C(=NC(=O)CCC3CCCC3)SC3CS(=O)(=O)CC32)cc1 (stereo unspecified)	0.9	.	0.7	-0.7	-5.1	i	3.2
O=C(COC(=O)c1ccc(O)cc1)c1ccc2c(c1)OCCO2	3.0	2%	0.63	-1.1	-1.1	i	.
O=C(CCn1c(=O)sc2ccccc21)Nc1nc2ccccc2s1	5.6	-3%	0.73	1.2	-12	i	5.0
Cc1cccc(N2CCN(C(=O)CN3C(=O)NC(C)(C4CC4)C3=O)CC2)c1C (stereo unspecified)	0.1	-2%	0.64	0.7	0.1	i	.
O=C(NC1CCS(=O)(=O)C1)/C(=C\c1ccco1)NC(=O)c1ccccc1 (stereo unspecified)	6.6	?	0.64	-2.1	-11	i	6.7
O=C(Nc1cccc(Cl)c1)Nc1ccon1	1.4	-6%	0.66	0.5	-1.1	i	3.9
NC(c1ccccc1)c1csc(Nc2ccc(C(F)(F)F)cn2)n1 (stereo unspecified)	.	.	.	4.6	2.3	i	.
O=C(NCCc1ccccc1Cl)c1cc(COc2ccc(F)cc2F)on1	3.1	3%	0.68	-1.7	.	.	0.8
O=C(O)c1c(F)c(F)cc2ccccc12	4.7	28%	0.66	2.5	.	.	4.1
COc1ccc(N(C)C(=O)c2ccc(NC(=O)CCS(=O)(=O)c3cccs3)cc2)cc1	2.2	.	0.65	-0.8	2.1	i	-0.9
CCC(=O)N1c2ccc(S(=O)(=O)CCC(=O)N3CCN(c4ccccc4F)CC3)cc2CC1C (stereo unspecified)	2.2	.	0.72	1.7	-7.6	i	2.0
CCOc1cc(CN2CCN(CCc3ccccc3)C(CCO)C2)ccc1OC (stereo unspecified)	-1.6	-10%	0.7	-0.4	0.5	i	-0.6
COc1ccc(S(=O)(=O)N2CCN(CC(=O)Nc3cccc(F)c3)CC2)cc1	-0.6	-2%	0.69	0.5	.	.	4.4
CCOc1ccc(N2CCCn3c2nc2c3c(=O)n(CCc3ccccc3)c(=O)n2C)cc1	3.2	11%	0.73	.	.	.	-0.3
O=C(Nc1cccc(C(F)(F)F)c1)c1sc(Cl)nc1C(F)(F)F	1.4	.	0.62	0.7	0.6	i	0.7
Cc1cc(OCC(=O)NC2CCCCC2)ccc1Cl	6.2	-4%	0.71	-0.1	.	.	-0.9
Cc1cc(C)n(-c2ccc(C(=O)Nc3ccc4c(c3)OCO4)cc2)n1	2.0	13%	0.67	-0.5	.	.	2.1
O=C(OCC(=O)N1CCN(Cc2ccccc2)CC1)c1cc(Cl)ccc1[N+](=O)[O-]	3.1	-11%	0.7	0.6	4.7	i	.
Cc1ccc(-n2cc(CN3CCC(CO)(Cc4cccc(C(F)(F)F)c4)CC3)cn2)cc1	2.8	.	0.67	1.1	10	.	-1.6
C/C(=N\N=C(N)N)c1ccc(Cl)c(Cl)c1	.	1%	.	-2.5	9.6	.	3.0
Cc1ccccc1S(=O)(=O)/N=C(/Nc1c(C)n(C)n(-c2ccccc2)c1=O)c1ccccc1	-2.3	11%	0.74	2.7	-5.0	i	-11
CCOC(=O)c1ccc(S(=O)(=O)N2CCC(C(=O)NCc3ccccc3OC)CC2)cc1	0.1	-7%	0.63	-0.6	1.2	i	.
CC(=O)Nc1ccc(NC(=O)c2c(C)noc2C)cc1	-2.4	.	0.71	0.4	-5.8	i	4.6
COc1cc(C(=O)OCc2csc(CC(=O)Nc3cc(C)ccc3C)n2)ccc1OC(F)F	.	.	.	12	-1.2	i	.
C/C(N)=C(/C#N)C(=O)COC(=O)CSc1ccc2ccccc2c1	3.1	3%	0.73	1.6	.	.	-2.9
O=C(CCCCN1CCCCC1)c1ccc2c(c1)Cc1ccccc1-2	-3.3	11%	0.65	1.0	0.5	i	2.0
COc1cccc(C(C(=O)NC2CCCC2)N(C(=O)c2csnn2)C2CC2)c1 (stereo unspecified)	1.3	.	0.66	-1.9	3.1	i	0.8
CCn1cc(C(=O)N2CCN(c3ccccc3OC)CC2)c2cc(OC)c(OC)cc2c1=O	7.2	.	0.65	1.1	4.5	i	-0.6
CSc1nnc(-c2cnccn2)n1Cc1ccccc1	2.3	-4%	0.71	-3.5	.	.	5.7
O=C(CCN1C(=O)c2ccccc2S1(=O)=O)Nc1nc2c(s1)CCCC2	1.1	19%	0.7	-0.3	.	.	1.9
CC(C)=CC(=O)OCc1cc([N+](=O)[O-])cc2c1OCOC2	-0.7	-1%	0.69	4.2	-0.8	i	2.5
O=C1CN(C(=O)COc2ccccc2Cl)c2ccccc2N1	1.0	10%	0.67	1.1	-3.0	i	.
Cc1nn(C)c(=S)[nH]c1=S	11	6%	0.64	-3.1	0.4	i	.
CCCNC(=O)c1onc(CSc2ccc(Cl)cc2)c1C(=O)NCCC(C)C	.	.	.	-3.1	-0.9	i	-3.7
CCC(=O)N(CC(=O)Nc1sc(C)c(C)c1C(N)=O)C1CCCC1	1.2	-3%	0.68	4.0	-3.1	i	22*
O=c1nc(-c2ccccc2)cc(C(F)(F)F)[nH]1	-46	-3%	0.66	1.9	.	.	0.2
Cc1cn([C@H]2C[C@H](O)[C@@H](CCC(=O)NCc3cccc4ccccc34)O2)c(=O)[nH]c1=O	.	.	.	-0.4	-1.1	i	.
COc1ccc(-n2cnnc2SCC(=O)NC2CCCCC2)cc1	0.9	.	0.68	-1.1	1.0	i	.
C/C(=N\Nc1ccc(C(F)(F)F)cn1)c1ccncc1	.	1%	.	0.1	6.9	i	4.4
Cc1cc(C)cc(CC(=O)N2CCC2(C)C(=O)NS(=O)(=O)c2ccccc2)c1 (stereo unspecified)	.	.	.	-0.4	-2.7	i	.
CC1(C)CC(=O)C(C=NC(CCC(N)=O)C(=O)O)=C(O)C1 (stereo unspecified)	0.6	28%	0.69	-0.4	.	.	4.5
CN(CCOc1ccc(Br)cc1)CC(=O)Nc1cccc(S(=O)(=O)NC2=NCCC2)c1	3.9	22%	0.67	5.1	3.5	i	4.4
C[C@@H](c1ccccc1)N1C[C@@H](COCc2ccccc2)Oc2cc(N3CC[C@H](O)C3)ccc2S1(=O)=O	.	.	.	-3.4	-1.7	i	.

A portion of the library (hit frequency here may not be typical).
